GCN5L2 inh: GCN5L2 (KAT2A) acetyltransferase inhibition. Q92830. GCN5L2 HAT assay, ThioGlo1 CoA-SH fluorescence. Potency, µM (doses to about 58.9 µM), without a hit: at the highest dose activity change, negative = inhibition, actives largely listed as inhibitors. actives 0.21% (n = 390,000). AID 504327; active = well fitted inhibition curve with a large enough effect; inconclusive = small, poorly fitted or top-dose-only effect, or another doubt; inactive = no such curve, though single readings can be large or run the other way
Target sequence (Q92830 whole entry, looked up): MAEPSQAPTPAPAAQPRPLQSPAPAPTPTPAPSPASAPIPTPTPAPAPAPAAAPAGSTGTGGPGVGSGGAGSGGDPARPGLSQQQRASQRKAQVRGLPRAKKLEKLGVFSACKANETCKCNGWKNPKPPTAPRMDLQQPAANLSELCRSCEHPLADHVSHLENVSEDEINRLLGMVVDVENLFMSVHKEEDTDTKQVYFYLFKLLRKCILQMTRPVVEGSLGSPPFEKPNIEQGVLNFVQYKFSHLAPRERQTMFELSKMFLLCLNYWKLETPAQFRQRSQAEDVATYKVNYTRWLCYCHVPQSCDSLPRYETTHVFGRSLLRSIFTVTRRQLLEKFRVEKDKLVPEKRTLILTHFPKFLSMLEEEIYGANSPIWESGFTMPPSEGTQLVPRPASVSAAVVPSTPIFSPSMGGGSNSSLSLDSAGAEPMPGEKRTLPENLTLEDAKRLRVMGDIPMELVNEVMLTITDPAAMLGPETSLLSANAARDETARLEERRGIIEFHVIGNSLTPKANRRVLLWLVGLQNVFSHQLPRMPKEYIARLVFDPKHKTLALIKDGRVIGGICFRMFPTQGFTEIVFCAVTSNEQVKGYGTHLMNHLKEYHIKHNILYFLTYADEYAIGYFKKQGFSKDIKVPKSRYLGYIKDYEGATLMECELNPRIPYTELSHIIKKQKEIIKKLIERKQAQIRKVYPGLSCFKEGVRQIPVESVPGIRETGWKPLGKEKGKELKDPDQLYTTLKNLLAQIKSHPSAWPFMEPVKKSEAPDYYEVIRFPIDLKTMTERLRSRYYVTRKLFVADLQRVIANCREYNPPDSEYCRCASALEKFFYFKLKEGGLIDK
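Titration-based screen in which CoA formation is detected via maleimide probe ThioGlo1 (50uM) turning fluorescent on thiol reaction; substrates H3(1-25) 75uM and acetyl-CoA 70uM, GCN5L2 20nM, 20 min incubation at room temperature.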
An asterisk follows results filed as active; ? = inconclusive; & = joins results of further samples; [ ] = dose if it differs, or a comment. % is set by controls: 0 for no effect and ±100 for the full control effect; potency is the fitted concentration of half-maximal effect. Some of the compounds tested, and most or all hits are left out here.

SMILES | GCN5L2 inh
NS(=O)(=O)c1cccc(NC(=O)CSc2nnc3n2CCCCC3)c1 | -1.6%
CCOC(=O)Nc1ccc2c(c1)N(C(=O)N1CCN(C)CC1)c1ccccc1S2 | -8.9%
O=C(CSc1c2c(nc3ccc(Cl)cc13)CCCC2)N1CCCCC1 | -2.5%
Cc1ccc2[nH]c(=O)c(CN(CCCO)C(C)c3nnnn3Cc3ccco3)cc2c1 (stereo unspecified) | -6.4%
O=C(COC(=O)c1ccc(Br)cc1)NC1CCCC1 | -8.9%
O=C(C[C@@H]1C/C=C\C[C@@H](Cc2ccc(F)cc2)C(=O)OC[C@@H]2CCCN2C1=O)NCCO | 0.9%
CCOC(=O)CNC(=O)c1ccc(SCC)cc1 | 8.3%
CS(=O)(=O)c1ccc(C(=O)NC(Cc2ccccc2)c2ccccc2)cc1 (stereo unspecified) | -3.5%
CN(C)c1ccc(NC(=O)CN2CCN(CC(=O)Nc3ccc(F)cc3)CC2)cc1 | -3.1%
CCCOc1ccc(C(CC(=O)O)NC(=O)C23CC4CC(CC(C4)C2)C3)cc1 (stereo unspecified) | 6.6%
CCOC(=O)c1c(SCC(=O)Nc2nc3ccccc3s2)nc(=O)[nH]c1C | -4.1%
CCc1ccccc1NC(=O)CN(C)C(=O)COc1ccc(C)nc1[N+](=O)[O-] | 1.9%
CCOC(=O)NCc1ccc2c(c1)cc(C)n2C | 42.4%[activator]
CN(c1ccc(C(=O)N2CCN(Cc3ccc4c(c3)OCO4)CC2)cc1)S(=O)(=O)c1ccccc1 | 1.1%
CC(C)(Oc1ccc(C2CC2(Cl)Cl)cc1)C(=O)O (stereo unspecified) | ?
CC(C)C[C@H]1CN=C(Nc2ccccc2)N1CCc1ccc(F)cc1 | -0.4%
CCOC(=O)N1CCC(Nc2c(NCCCN(CC)CC)c(=O)c2=O)CC1 | -2.2%
O=C(/C=C/c1cccc(C(F)(F)F)c1)Nc1cccc(C(F)(F)F)c1 | -14.1%
O=C(Nc1ccccc1-c1ccccc1)NC1CCN(CC(=O)N2CCOCC2)CC1 | -1.1%
S=C(Nc1cccc2ccccc12)NN1CCOCC1 | -1.6%
COc1ccc(CCNC(=O)C2CCCN2S(=O)(=O)c2cccc3nsnc23)cc1OC (stereo unspecified) | 2.9%
CCOc1ccc(NC(=O)C(C)N2C(=O)c3ccccc3C2=O)cc1 (stereo unspecified) | -4.2%
O=C(Cn1nnc(-c2ccccc2F)n1)Nc1ccc2c(c1)OCO2 | -2.1%
CC1=CC(c2ccc(Cl)cc2)n2nc(NC(=O)c3ccccc3)nc2N1 (stereo unspecified) | -3.1%
Cc1c(C(=O)N2CC(C(=O)N3CCCCC3)Oc3ccccc32)oc2ccccc12 (stereo unspecified) | -1.4%
More results follow.
SMILES | GCN5L2 inh
Cc1ccc(CCNC(=O)c2ccc3c(c2)N(Cc2cccc(Cl)c2)C(=O)c2ccccc2S3(=O)=O)cc1 | 3.4%
Cc1ccc(S(=O)(=O)Nc2c(O)c3ccccc3oc2=O)cc1C | -3.8%
CCN1CCc2c(OCC(=O)Nc3ccccc3)cccc2C1=O | 1.5%
CC12CNCC(C)(CN(C3(O)C(=O)Nc4ccc(Br)cc43)C1)C2=O (stereo unspecified) | -7.2%
C/C(=N/NC(=O)CNc1ccc(Cl)cc1C)c1ccc(C)cc1 | -2.7%
c1ccc2[nH]c(-c3cscn3)nc2c1 | -1.8%
N#CC1=C(N)OC2=C(C(=O)CCC2)C12CCC1(CC2)OCCO1 | 2.7%
O=C(CN1CCc2ccccc2C1)NCC(=O)Nc1ccc(F)cc1 | -3.2%
COc1ccc2nc(C)cc(C(=O)O)c2c1 | -1.0%
COc1cc(NC(=O)c2ccc3c(c2)OCCO3)ccc1NC(=O)c1cccs1 | -13.2%
CC(C(=O)Nc1ccc2c(c1)OCO2)n1cnc2c1c(=O)n(C)c(=O)n2C (stereo unspecified) | 2.8%
COc1cc(NC2=CC(=O)CC(C)(C)C2)cc(OC)c1OC | 0.6%
Cc1onc(-c2ccccc2Cl)c1C(=O)Nc1ccc(CN2CCCC2)cc1 | -1.9%
Cc1cccc(C)c1N1C(=O)C2ON(c3ccccc3)C(c3ccncc3)C2C1=O (stereo unspecified) | -1.6%
CCOC(=O)Cn1c(CN2CCN(c3cccc(Cl)c3)CC2)nc2c1c(=O)[nH]c(=O)n2C | -1.9%
CSc1cc(-c2ccccc2)[nH]c(=O)c1C#N | 8.3%
Cc1ccc(C)c(Nc2nn3c(=O)c4ccc(C(=O)NCc5cccnc5)cc4nc3s2)c1 | -6.9%
CCn1c(=N)n(CCOc2ccc(OC)cc2)c2ccccc21 | -3.1%
COc1ccc(/C=C/C(=O)c2ccc(NC3=NCCCS3)cc2)cc1OC | -12.9%
O=c1c2ccccc2nc(SCCN2CCOCC2)n1CCc1ccccc1 | -36.1%
Cc1nc(C)c(-c2csc(Nc3ccc(O)c(C(=O)O)c3)n2)s1 | -1.4%
COc1ccc(C2/C(=C(\O)c3ccc4c(c3)OCCO4)C(=O)C(=O)N2CCCn2ccnc2)cc1 (stereo unspecified) | -13.4%
O=C(OCC(=O)C12CC3CC(CC(C3)C1)C2)c1cccnc1Cl | -3.8%
CN(C(=O)CSc1nnc(-c2ccc([N+](=O)[O-])cc2)o1)C1CCCCC1 | 0.7%
CCC(C)(C)n1nnnc1C(c1cccnc1)N1CCCc2ccccc21 (stereo unspecified) | -13.3%
More structures follow:
SMILES | GCN5L2 inh
COc1cc(CN(C(=O)c2cccc(Cl)c2)c2ccccn2)cc(OC)c1OC | -15.3%
COC(=O)Cn1c(=O)sc2ccccc21 | -6.6%
CC1CCCC(NC(=O)CCNC(=O)c2ccc(Cl)cc2)C1C (stereo unspecified) | -5.0%
CCOc1ccc(C(CC(=O)O)NC(=O)COc2ccccc2OC)cc1OC (stereo unspecified) | -2.9%
CCc1ccccc1NC(=O)CN1CCN(C(=O)CN2C(=O)NC3(CCCC3)C2=O)CC1 | -4.1%
CCCCN(C(=O)CNC(=O)c1cccs1)C(C(=O)NC1CCCCC1)c1cccnc1 (stereo unspecified) | -9.3%
CCc1cc(SC#N)cc(C)c1N | -5.1%
CCN(c1ccccc1)S(=O)(=O)c1cccc(C(=O)NCc2ccccn2)c1 | -7.0%
COC(=O)c1ccc(COC(=O)c2ccccc2OC)cc1 | 17.3%
CC12CCC(=O)N1C(C(=O)Nc1nnc(SCc3ccc(F)cc3)s1)CS2 (stereo unspecified) | -4.0%
COc1ccc(-c2cc(C(=O)n3cnc4ccccc43)c3ccccc3n2)cc1 | -10.0%
Cc1cc(-c2ccco2)n(-c2ccccc2)n1 | -3.9%
Cc1ccc(N2CC(C(=O)Nc3nnc(SCC(=O)Nc4cc(C)on4)s3)CC2=O)cc1 (stereo unspecified) | -0.2%
NC[C@@H]1O[C@H](O[C@H]2[C@@H](O)[C@H](O[C@@H]3[C@@H](O)[C@H](N)C[C@H](N)[C@H]3O[C@H]3O[C@H](CO)[C@@H](O)[C@H](O)[C@H]3N)O[C@@H]2CO)[C@H](N)[C@@H](O)[C@@H]1O | 2.2%
Cc1ccc(/C(O)=C2\C(=O)C(=O)N(C)C2c2cccc([N+](=O)[O-])c2)cc1 (stereo unspecified) | -1.1%
N#CC1=C(N)Oc2n[nH]c(CSc3ccccc3)c2C12C(=O)Nc1ccccc12 (stereo unspecified) | -2.5%
COc1ccccc1NS(=O)(=O)c1cccc(C(=O)N/N=C/c2ccc(N3CCOCC3)cc2)c1 | -11.8%
CC(=O)C(Cc1ccccc1)NC(=O)COC(=O)c1cccc(C)c1[N+](=O)[O-] (stereo unspecified) | -1.9%
CCCCN(Cc1ccco1)C(=O)Cn1ncc2c(=O)oc3ccc(C)cc3c21 | -6.9%
CCOc1ccc(Nc2nc3c(S(=O)(=O)c4ccc(CC)cc4)nnn3c3ccc(Cl)cc23)cc1 | 0.2%
CCOC(=O)Nc1nnc(-c2ccc(OC)c(OC)c2)s1 | 2.1%
Cc1ccc(N(CC(=O)N2CCOCC2)S(C)(=O)=O)cc1 | 0.9%
O=C(NCCCN1CCCC1=O)c1cccc(NS(=O)(=O)c2ccccc2)c1 | -3.7%
CCOCCCNC(=O)C(NC(=O)CNC(=O)c1ccccc1)c1ccccc1 (stereo unspecified) | -0.7%
CCC1(C)Cc2ccccc2C(=S)N1 (stereo unspecified) | 2.4%
Following part:
SMILES | GCN5L2 inh
O=C(CCc1ccccc1)NNC(=O)c1ccccc1C(=O)O | -5.4%
CCCCOc1ccc(-c2nnn(CCC(=O)N3CCOCC3)n2)cc1 | 0.2%
Cn1c(SCC(=O)NCC2CCCO2)ncc(C(=O)Nc2ccc(F)cc2)c1=O (stereo unspecified) | -0.8%
C=CCNC(=S)NC(=O)c1ccc(C)c(Br)c1 | -6.9%
O=C(c1cc([N+](=O)[O-])ccc1Cl)N1CCN(c2ccccn2)CC1 | -14.6%
COc1cccc(OCc2cc(C(=O)NCCN3CCCCC3CO)no2)c1 (stereo unspecified) | -19.8%
COc1ccc(S(=O)(=O)N2CCC(C(=O)N[C@@H](C)C(=O)NC3CC3)CC2)cc1 | -0.5%
O=C(NCCc1csc(-c2cccnc2)n1)c1cccc(Cl)c1 | 1.1%&-6.7%
CC(=O)N1CCCc2cc(S(=O)(=O)N3CCC(C(=O)NCc4ccc(C)cc4)CC3)ccc21 | 17.4%
CN(C)c1nc(N2CCN(c3ccccc3)CC2)c(C#N)c(=O)o1 | -0.1%
CCNC(=O)c1ccc2c(c1)nc1n2CCCCC1 | -3.1%
COc1ccc2oc(C(=O)NC(C)c3ccccn3)c(C)c2c1 (stereo unspecified) | 0.6%
COc1cc(Nc2nc3c(S(=O)(=O)c4ccccc4)nnn3c3ccc(Cl)cc23)cc(OC)c1 | 1.1%
CC(C)CSc1nnc2c(n1)[nH]c1ccccc12 | -1.1%
O=C1CC2(CCN(C(=O)c3cccc(Br)c3)CC2)Oc2ccccc21 | -1.5%
CC1c2[nH]c3ccccc3c2CCN1S(C)(=O)=O (stereo unspecified) | 0.6%
COc1ccc2c(C)cc(SCC(=O)c3ccc4c(c3)OCO4)nc2c1 | -9.7%
O=C(NCC1CCCO1)c1coc2nc3ccccc3nc12 (stereo unspecified) | -0.2%
O=C(O)Cc1ccc(NC2(c3ccccc3)C(=O)c3ccccc3C2=O)cc1 | 6.8%
O=C(COC(=O)Cn1cnc2ccccc21)Nc1ccc2c(c1)C(=O)c1ccccc1C2=O | -6.8%
Cc1cccc(NC(=O)c2c(C)cc(=O)oc2C)n1 | 4.0%
Cc1ccc2nc(-c3ccsc3)c(Nc3ccc(Cl)cc3)n2c1 | 1.0%
Cc1ccc(S(=O)(=O)NCC(=O)N(CC(=O)NCc2ccco2)Cc2ccco2)cc1 | -2.2%
CC(=O)Nc1ccc(NC(=O)c2ccccc2-n2cnnn2)cc1 | -24.9%
O=C(CSc1nnc(NC2CC2)s1)Nc1ccc(N2CCOCC2)cc1 | -6.4%

Taken from the listing for reference:
SMILES | GCN5L2 inh
CC1c2[nH]c3ccccc3c2CCN1S(C)(=O)=O (stereo unspecified) | 0.6%
COc1ccc2c(C)cc(SCC(=O)c3ccc4c(c3)OCO4)nc2c1 | -9.7%
O=C(NCC1CCCO1)c1coc2nc3ccccc3nc12 (stereo unspecified) | -0.2%
O=C(O)Cc1ccc(NC2(c3ccccc3)C(=O)c3ccccc3C2=O)cc1 | 6.8%
O=C(COC(=O)Cn1cnc2ccccc21)Nc1ccc2c(c1)C(=O)c1ccccc1C2=O | -6.8%

Going on with the list:
SMILES | GCN5L2 inh
COc1cccc(NC(=O)Nc2ccc3c(c2)nc(C)n3C)c1 | -2.3%
Cc1ccccc1OCC(=O)Nc1sc2c(c1C#N)CC(C)(C)NC2(C)C | -1.3%
CN(Cc1ccccc1)C(=O)C1CCCN(c2ncnc3c2nc2n3CCCCC2)C1 (stereo unspecified) | -2.6%
O=C(Nc1ccc2c(c1)OCO2)c1ccc(N2CCCC2)c([N+](=O)[O-])c1 | -8.9%
O=C(Nc1ccc(N2CCOCC2)nc1)c1ccc(F)cc1 | -1.8%
CCC(=O)NN1CCN(c2ccncc2S(=O)(=O)N2CCCCC2)CC1 | -8.0%
CCOc1ccc(C(=O)NCC(C)CN(C)C)cc1OCC (stereo unspecified) | -13.5%
CCCCNC(=O)c1cc2c(-c3ccc(Cl)cc3)nn(C)c2s1 | -2.4%
O=C(NO)c1ccc(OC(F)F)cc1 | -2.7%
COc1cc(OC)c(C2N(c3cc(C)on3)C(=O)C3CCCN32)cc1OC (stereo unspecified) | ?
C=CC[C@@H](CC(=O)N[C@H](CO)Cc1ccccc1)C(=O)NC[C@H](OC(=O)[C@@H](CC=C)Cc1ccc(F)cc1)c1ccccc1 | 1.6%
O=C(ONC1=NCCCCC1)c1ccc([N+](=O)[O-])cc1 | 1.5%
CC(=O)c1cn(S(=O)(=O)c2ccccc2)c2ccccc12 | -17.3%
N#CCCn1nnc(-c2ccccc2F)n1 | 1.0%
O=C(CCn1cccn1)Nc1ccc2c(c1)OCO2 | -2.1%
CSC1=C(C#N)C(c2cccc(Br)c2)CC(=O)N1 (stereo unspecified) | -12.7%
O=C(Nc1nncs1)c1ccc(N2C(=O)C3C4C=CC(C4)C3C2=O)cc1 (stereo unspecified) | -8.7%
Cn1ccc(C(=O)NC(=S)N2CCSCC2)n1 | -0.6%
CCc1ccc(-c2cc(C)no2)cc1S(=O)(=O)NCc1ccc(OC)c(OC)c1 | -16.2%

An excerpt from above in order of formula weight, rising:
SMILES | GCN5L2 inh
O=C(ONC1=NCCCCC1)c1ccc([N+](=O)[O-])cc1 | 1.5%
CC(=O)c1cn(S(=O)(=O)c2ccccc2)c2ccccc12 | -17.3%
CSC1=C(C#N)C(c2cccc(Br)c2)CC(=O)N1 (stereo unspecified) | -12.7%
CCCCNC(=O)c1cc2c(-c3ccc(Cl)cc3)nn(C)c2s1 | -2.4%

Source: PubChem BioAssay (National Center for Advancing Translational Sciences (NCATS))
